Bead autofluor: counter-screen for toxin protease inhibitors: compound fluorescence. 360,000 compounds, 3.1% hits. compound autofluorescence counterscreen, microsphere flow cytometry; active compounds read high. AID 624483. fluorescence intensity (test concentration not listed);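 active = at least 3 SD above the mean of all compounds, about 16000 in these data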;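 also: 100 nL of 1 mM stock went into each well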
Mtb hypoxia inh: PubChem AID 1159583; 300,000 compounds, 0.1% hits; M. tuberculosis hypoxia-regulated fluorescent reporter, fluorescence; fluorescence inhibition, % (concentration not given with the values);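 active = 35 to 45% if threefold the growth effect, above 45% if 1.5-fold the growth effect; inactive = the rest, general growth blockers included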;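 also: wells of about 50 µL received 100 nL stock; 0% = vehicle wells and 100% = reference inhibitor wells; whole bacteria with a GFP reporter of the hypoxia response; strong numbers were not always called active; many hits fall short of the cut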
RN4220 kill: growth inhibition of S. aureus RN4220, primary screen, OD600; 16 h; inhibition, % (test concentration not listed); 330,000 compounds, 0.33% hits; AID 1259311, 2017;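 active = z-score of -3 or lower and OD600 up to 0.18 on both plates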;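 also: plate controls were untreated cells for no effect and reference antibiotic for full effect; stock transfer was 100 nL into about 80 µL; one replicate is shown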
Sa ugtP lethal: growth inhibition of ugtP-null S. aureus, primary screen, RN4220 ugtP deletion, OD600; growth inhibition, % (test concentration not listed); AID 1259309, 2017; 330,000 compounds, 0.54% hits; 16 h; some inactives read as strong as hits;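 active = z-score under -3 and OD600 up to 0.15 on both plates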;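 also: plate controls were untreated wells for no effect and antibiotic for full effect; wells of about 80 µL received 100 nL stock; the first replicate is given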
PrP 5UTR inh: inhibition of PrP 5' UTR reporter expression. cell-based PrP 5' UTR mRNA reporter, plate reader. inhibition, % (no concentration beside the values). 340,000 compounds, 0.35% hits. AID 488862, 2010;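 active = every replicate at 50% or more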;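 also: 0 = median of the neutral control wells; tested in H4 reporter cells; numbers are from one replicate; inactives centre near -14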
BJeLR viability: MLPCN primary cell-based screen for lethality selective to Ras in HRASV12 cells. BJeLR (HRASV12) viability, CellTiter-Glo ATP luminescence, 48 h; reference of the scale not given here. inhibition, % (test concentration not listed). 300,000 compounds, 0.17% hits. AID 1554, 2009;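 active = replicate mean above 50%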;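 also: 50 nL library stock added to about 25 µL; numbers are from one replicate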
Mtb hypoxia inh growth: further read-out of Mtb hypoxia inh, marked with its call; growth inhibition, %; measured here: M. tuberculosis growth (absorbance);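 0% = vehicle and 100% = reference antibiotic; read after six days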
* = called active by the depositor; . = not tested or not shown; & = joins results of further samples.

SMILES	Bead autofluor	Mtb hypoxia inh	Mtb hypoxia inh growth	RN4220 kill	Sa ugtP lethal	PrP 5UTR inh	BJeLR viability
CCCNC(=O)CN(Cc1ccccc1F)S(=O)(=O)c1ccc(C)cc1	21376*	1	9	5.4	-3	-14	-16
CC(C)(C)N1CC(OC(N)=O)C1	3580	-4	9	1.7	-1	-9	-5
C[C@@]12CCC=CC1C(c1ccc(F)c(C=Cc3ccccc3)c1)N(Cc1ccccc1)C2=O (stereo partly drawn)	.	-2	4	-12	-6	.	.
Cc1ccc(Oc2nc(C(F)(F)F)nc3ccccc23)cc1	2735	.	.	6.9	16	-14	-5
COc1cc(N=Nc2ccc(C)cc2S(N)(=O)=O)c(C)cc1N	3034	23	11	8.6	8	-9	.
Cc1c(CC(=O)O)c(=O)oc2c(C)c3occ(-c4ccc(Br)cc4)c3cc12	3121	.	.	.	.	-23	4
O=C(CSc1nnc(NC(=O)c2cccc(F)c2)s1)NC1CCCC1	3670	16	10	-4.1	5	-10	1
COc1ccc(/C=C\c2onc(C)c2S(=O)(=O)N2CCC(C(=O)NCc3ccco3)CC2)cc1	4943	1	-2	2.2	16	-10	-14
O=C(Nc1ccccc1C(=O)NC(Cc1ccccc1)C(=O)O)c1ccccc1 (stereo not drawn)	4777	13	11	5.4	0	-9	-3
CCOC(=O)c1c(NC(=O)c2c(Br)cnn2CC)sc(C)c1C	9788	17	12	5.3	-10	-17	7
Cc1nc2ccccc2cc1C(=O)N/N=C/c1ccccc1[N+](=O)[O-]	2422	.	.	.	.	-8	11
CCOC1OC(C(=O)N2CCOCC2)=CC(C)C1CCCO (stereo not drawn)	.	9&20	5&1	6.1&5.2	2&6	.	.
CC(CNC(=O)c1ccc(Br)o1)NC(=O)c1ccc(Br)o1 (stereo not drawn)	4707	17	14	-1.2	7	-13	-1
Cc1ccc(C)c(NC(=O)CN(C)C(=O)c2cc3ccccc3o2)c1	4040	13	6	4.0	5	-34	4
CCc1ccc(NC(=O)CSc2nnc(COc3ccc4c(c3)CCCC4)o2)cc1	2334	.	.	-2.2	-3	-7	-1
COc1cc(/C=C/C(=O)NCC(=O)N2CCC(N(C)CCN3CCOCC3)CC2)ccc1OC(C)C	2714	14	1	0.3	1	-13	9
C=CCN1C=C(C(=O)c2ccccc2)C(=O)CC1	2953	1	1	2.5	11	-11	.
Cc1ccc(C(=O)CNc2nc3c(c(=O)[nH]c(=O)n3C)n2Cc2ccccc2)cc1	2746	.	.	-0.5	5	-12	5
COc1ccc(-c2c(C(=O)O)c(-c3ccccc3)cn2C)cc1	3809	.	.	.	.	-22	-11
Cc1ccc(NC(=S)N=Nc2c(O)n(C)c3ccc(S(=O)(=O)N4CCOCC4)cc23)cc1	2479	-12	1	3.6	-5	31	15
COc1ccc(/C=N/NC(=O)CNC(=O)/C=C/c2ccco2)cc1OC	5102	.	.	.	.	-4	-2
Cc1cc(C)c(NC(=O)c2ccc3c(c2)CCN3S(C)(=O)=O)c(C)c1	3816	1	2	0.1	4	8	-3
O=C(O)CCC(=O)N1CCCC1C(=O)O (stereo not drawn)	.	5	-2	4.2	-5	.	.
CC(=O)N(CCCN(C)C)Cc1ccccn1	6321	11	4	-0.8	5	-22	8
Cc1ccc(S(=O)(=O)N(C)Cc2ccc(-c3nnco3)cc2)cc1	4407	.	.	4.7	-1	-15	16
COc1ccc(-c2cc3cc(OC)c(OC)cc3cn2)cc1	4166	-3	15	5.3	-25	-67	.
CC[C@@]12C(=O)N(c3cccc(C)c3)C(=O)N1[C@H](c1ccc(Br)cc1)[C@@H]1C(=O)N(C(C)(C)C)C(=O)[C@@H]12	2999	.	.	.	.	6	6
Cn1c(=O)c2c(nc(SCC(=O)NCC3CCCO3)n2Cc2ccc(F)cc2)n(C)c1=O (stereo not drawn)	4680	9	1	0.3	2	-14	-5
Cc1cc(Br)cc(/C=N/NC(=O)c2ccc3c(c2)OCO3)c1O	3669	.	.	.	.	4	23
O=C(NN=Cc1cc([N+](=O)[O-])ccc1Cl)c1cc(-c2ccccc2)nc2ccccc12	.	-6	-3	-6.0	9	.	.
CCOC(=O)N1CCN(C(=O)CCC(=O)N2CCOc3ccc(C)cc32)CC1	2302	3	-6	-7.4	-3	-18	-7
CCOC(=O)C1=C(C)NC(=O)NC1c1c(OCC(=O)N2CCCCC2)ccc2ccccc12 (stereo not drawn)	4466	.	.	2.3	-4	-2	3
C=CCc1ccccc1OCC(O)CNC (stereo not drawn)	3955	.	.	1.2	2	-15	-1
CS(=O)(=O)N(CC(=O)NCc1ccco1)c1cccc([N+](=O)[O-])c1	4233	9	8	2.7	4	-24	5
CCOc1ccc(N(C(=O)c2snc(C(N)=O)c2N)C(C(=O)NCC2CCCO2)c2ccc(C)o2)cc1 (stereo not drawn)	4996	-15	-6	1.9	4	-9	-5
CCOc1ccc2nc(NC(=O)c3ccco3)sc2c1	3669	-5	8	2.1	-6	14	22

Three compounds drawn at random from the list so far:
SMILES	Bead autofluor	Mtb hypoxia inh	Mtb hypoxia inh growth	RN4220 kill	Sa ugtP lethal	PrP 5UTR inh	BJeLR viability
COc1ccc(-c2cc3cc(OC)c(OC)cc3cn2)cc1	4166	-3	15	5.3	-25	-67	.
COc1cc(N=Nc2ccc(C)cc2S(N)(=O)=O)c(C)cc1N	3034	23	11	8.6	8	-9	.
O=C(NN=Cc1cc([N+](=O)[O-])ccc1Cl)c1cc(-c2ccccc2)nc2ccccc12	.	-6	-3	-6.0	9	.	.

Part of the list above, bar-delimited.
SMILES | Bead autofluor | Mtb hypoxia inh | Mtb hypoxia inh growth | RN4220 kill | Sa ugtP lethal | PrP 5UTR inh | BJeLR viability
CCOC(=O)C1=C(C)NC(=O)NC1c1c(OCC(=O)N2CCCCC2)ccc2ccccc12 (stereo not drawn) | 4466 | . | . | 2.3 | -4 | -2 | 3
Cn1c(=O)c2c(nc(SCC(=O)NCC3CCCO3)n2Cc2ccc(F)cc2)n(C)c1=O (stereo not drawn) | 4680 | 9 | 1 | 0.3 | 2 | -14 | -5

(more compounds)
SMILES	Bead autofluor	Mtb hypoxia inh	Mtb hypoxia inh growth	RN4220 kill	Sa ugtP lethal	PrP 5UTR inh	BJeLR viability
COc1ccc(-c2cc(C(=O)NCC3CCCO3)c3cc(C(C)C)ccc3n2)cc1 (stereo not drawn)	4670	7	2	4.5	-14	-17	1
N#CCCN1CCC(NC(=O)OCc2ccccc2)CCC1=O (stereo not drawn)	3108	0	-2	6.8	7	-8	3
CC(C)NC(=O)[C@@H]1C[C@@]1(C)[C@@H](NC(=O)OCc1ccccc1)c1ccccc1	3999	.	.	.	.	-10	-1
COCCN1C=C(C(=O)OC)C(c2cc3c(cc2Br)OCO3)C(C(=O)OC)=C1	.	0	9	3.7	-7	.	-5
O=C(O)CCCNS(=O)(=O)Cc1ccccc1	2215	13	6	4.4	8	-16	5
COc1ccc(N(C(=O)CNC(=O)c2cccs2)C(C(=O)NC2CCCC2)c2cccnc2)cc1 (stereo not drawn)	4236	0	-3	4.1	2	-14	4
O=C(COC(=O)c1cccc(O)c1)NCc1ccc2c(c1)OCO2	4925	5	-9	3.0	6	-17	8
CC(C)C(NC(=O)Nc1ccccc1F)C(=O)O (stereo not drawn)	.	3	0	-2.6	-8	.	.
CCn1c(CSCc2ccc(F)cc2)nnc1SCC(=O)N1CCN(c2ccccc2)CC1	3873	6	13	5.8	-8	-13	-7
CC(CN1CCOCC1)OC(=O)COc1ccc(F)cc1 (stereo not drawn)	.	20	8	3.7	4	-4	-2
N#C/C(C(=O)NCc1ccccc1)=C1\SC(CCO)C(=O)N1c1ccccc1 (stereo not drawn)	4970	.	.	3.7	5	-6	-3
Cc1ccc(-c2nc3c(c(=O)[nH]c(=O)n3Cc3ccccc3)n2C)s1	.	13	8	0.0	2	.	4

Profiles from above. Screens in order: Bead autofluor | Mtb hypoxia inh | Mtb hypoxia inh growth | RN4220 kill | Sa ugtP lethal | PrP 5UTR inh | BJeLR viability
Entry for COc1cc(N=Nc2ccc(C)cc2S(N)(=O)=O)c(C)cc1N : 3034 | 23 | 11 | 8.6 | 8 | -9 | .
Entry for Cc1nc2ccccc2cc1C(=O)N/N=C/c1ccccc1[N+](=O)[O-] : 2422 | . | . | . | . | -8 | 11
Entry for C=CCc1ccccc1OCC(O)CNC (stereo not drawn) : 3955 | . | . | 1.2 | 2 | -15 | -1
Entry for Cc1c(CC(=O)O)c(=O)oc2c(C)c3occ(-c4ccc(Br)cc4)c3cc12 : 3121 | . | . | . | . | -23 | 4
Entry for CCOC(=O)N1CCN(C(=O)CCC(=O)N2CCOc3ccc(C)cc32)CC1 : 2302 | 3 | -6 | -7.4 | -3 | -18 | -7

(listing goes on)
SMILES	Bead autofluor	Mtb hypoxia inh	Mtb hypoxia inh growth	RN4220 kill	Sa ugtP lethal	PrP 5UTR inh	BJeLR viability
CC(C)CC(C(=O)NC(C)(C)C)N(CC1CCCO1)C(=O)c1snc(C(N)=O)c1N (stereo not drawn)	3517	7	0	0.2	-2	-7	-1
CCc1ccc(/C=C2\SC(N3CCCC3)=NC2=O)cc1	3871	13	16	4.7	16	-3	9
CSC(=NNC(N)=O)c1ccccc1	.	-1	13	3.0	2	.	.
O=C(O)CN1C(=O)/C(=C\c2ccccc2OCc2ccc(Cl)cc2)SC1=S	3992	.	.	.	.	-2	-11
O=C(NCc1ccccn1)Nc1cccc([N+](=O)[O-])c1	5244	4	1	6.3	0	-2	-5
Nc1nc(COc2ccc(Cl)cc2)cs1	3606	1	2	7.6	5	-50	-6
COCCCN(C(=O)C(C)Oc1ccc(Br)cc1)c1c(N)n(Cc2ccccc2)c(=O)[nH]c1=O (stereo not drawn)	5633	.	.	.	.	-4	-5
O=C(CSc1c[nH]c2ccccc12)N1CCOCC1	10845	0	-1	4.7	7	-20	9
CCCOc1ccc(-c2c(C(=O)N/N=C(\C)c3ccco3)nnn2-c2nonc2N)cc1	6020	.	.	.	.	17	-4
Cc1ccc2nc(N/C(N)=N/S(=O)(=O)c3ccc([N+](=O)[O-])cc3)nc(C)c2c1	2175	.	.	.	.	-25	-14
O=C(NCC1CC1)NC(=O)c1c(F)cccc1Cl	3604	3	9	4.8	-1	-32	3
CCOCCCNC(=O)c1c(N)n(-c2ccc(S(N)(=O)=O)cc2)c2nc3ccccc3nc12	3062	.	.	.	.	-9	1
O=C(Oc1ccc2ccc(OC(=O)N3CCCCCC3)cc2c1)N1CCCCCC1	2481	1	2	-5.1	-3	-10	6
O=C(NCc1ccccc1)C1CCCN(S(=O)(=O)c2ccc(-n3cnnn3)cc2)C1 (stereo not drawn)	4054	11	5	4.9	5	-22	-5
FC(F)(F)c1cc(-c2ccco2)nc(NCCc2ccccc2)n1	3543	19	-4	-4.8	-11	-24	6
CN(Cc1nc(CCc2ccccc2)no1)Cc1cccs1	4467	-2	19	6.6	-68	-29	-3
Cc1cccc(NC(=S)N(CCN2CCOCC2)Cc2cc3cc4c(cc3[nH]c2=O)OCO4)c1	4121	-6	-8	8.4	6	-21	-1
CN(C)c1ccc2cc(S(=O)(=O)O)cc(O)c2c1	3579	2	1	-0.8	-10	3	.
COc1ccc(C(=O)Cc2ccc(F)cc2)c(OC)c1	2862	3	5	8.5	10	-65	-4
C/C(=N\NC(=S)NCCc1ccccc1)c1cccs1	2098	.	.	.	.	-6	4
CCS(=O)(=O)C1=NN2C(=N)/C(=C\c3ccc(OS(=O)(=O)c4ccccc4)cc3)C(=O)N=C2S1	4242	.	.	.	.	-1	4
CC(=NNC(=S)Nc1c(C)cccc1C)c1ccc(O)cc1	.	7	4	-2.3	6	.	.
CC1(OC(=O)CCc2ccccc2)C(=O)C=C2C=C(c3ccc(C#N)cc3)N(CC3CC3)C=C2C1=O (stereo not drawn)	3305	.	.	.	.	-6	7
CCCOC(=O)c1c(NC(=O)C2C3C=CC(C3)C2C(=O)O)sc2c1CCC(C)C2 (stereo not drawn)	3904	-1	-2	-3.3	12	-5	10
COc1ccccc1NC(=O)CSc1nnc(COc2ccc(Cl)cc2)n1Cc1ccco1	3293	6	4	0.0	-1	-2	2
CCCOc1ccc(N2C(=O)CC(NCc3cccnc3)C2=O)cc1 (stereo not drawn)	3421	7	2	6.4	10	19	-5
COc1ccc(C(=O)NC2CCN(CC(=O)NC3CCCCC3)CC2)cc1	3674	8	-1	4.6	6	-35	-3
COc1ccc(-c2cc(-c3cccs3)nc(OC)c2C#N)cc1OC	2111	3	4	6.5	6	-22	11

Screening data deposited in PubChem by several laboratories.

Compounds as they come. Share with any hit: about 3.9%.
